CSC inhib: cancer stem cell inhibition | cancer stem cell-like cells viability, luminescence | hit rate 1.1% among 300,000 | inhibition, % at 7.5 µM;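 active = mean at 75% or more and at least half the replicates too; inconclusive = mean and replicates disagree; tested in HMLE shEcad cells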;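 note: 0% = median of negative and 100% = median of positive control wells; the first replicate is given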
UUG fidelity: modulators of start codon recognition fidelity in yeast; S. cerevisiae UUG-firefly luciferase reporter, luminescence/redox ratio; activity score, % at 18.7 µM; hit rate 0.13% among 350,000; AID 602363;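 active = replicate mean at a twofold rise or more, about +100% in these data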;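 note: firefly luciferase made from a UUG start codon reports start codon fidelity; reporter light over untreated wells divided by growth signal over untreated wells; some hits fall short of that in this replicate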
Env fusion inh: inhibitors of HIV Env-mediated cell fusion | hit rate 1.1% among 360,000 | HeLa-JRFL Env/CEM21 cell fusion, luciferase | AID 651610 | inhibition, % at 12.3 µM;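 active = mean replicate inhibition score of at least 50 and every replicate individually at or above 50; inconclusive = only one of the two criteria met; inactive = mean below 50 and not all replicates reaching 50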;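 note: 0% = plate neutral controls and 100% = maraviroc near 300 nM; one replicate is shown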
MT1-MMP act inh: inhibitors of human MT1-MMP activation; HT1080 RFP-PRO-GFP cells, GFP/RFP ratio fluorescence, overnight; percent of plate control window, DMSO zero; AID 651647; hit rate 0.061% among 360,000; GFP/RFP ratio change, % at 20 µM;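 active = GFP/RFP ratio change of at least 30% with cell ATP level not reduced by more than half and red fluorescence within 50% of control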; note: strong numbers were not always called active
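Material – HT1080 RFP-PRO-GFP cells · Control set – DMSO wells and RFP-L50D-GFP cells · Incubation – overnight cell settling, then overnight compound exposure, 37 °C, 5% CO2 · Compound dosing – single-point 20 µM compound, 1% DMSO · Read-out – GFP/RFP fluorescence ratio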
PABP FP inh: blocks human PABP binding to poly(A) RNA; P11940; fluorescence polarization; inhibition, % at 35 µM; hit rate 1% among 290,000; AID 2014;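 active = 50% or more with normal probe brightness, or confirmed in later tests; inconclusive = above 50% with abnormal brightness, or retests that disagree; inactive = below 50% or failed in later tests; about a fifth of its hits are not listed in these tables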;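 note: calls also rest on retests at 20 µM and on dose response follow-up; controls were probe without protein and protein plus probe with vehicle; some compounds called inactive have numbers as strong as hits; many hits fall short of the cut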
Target sequence (P11940 whole entry, looked up): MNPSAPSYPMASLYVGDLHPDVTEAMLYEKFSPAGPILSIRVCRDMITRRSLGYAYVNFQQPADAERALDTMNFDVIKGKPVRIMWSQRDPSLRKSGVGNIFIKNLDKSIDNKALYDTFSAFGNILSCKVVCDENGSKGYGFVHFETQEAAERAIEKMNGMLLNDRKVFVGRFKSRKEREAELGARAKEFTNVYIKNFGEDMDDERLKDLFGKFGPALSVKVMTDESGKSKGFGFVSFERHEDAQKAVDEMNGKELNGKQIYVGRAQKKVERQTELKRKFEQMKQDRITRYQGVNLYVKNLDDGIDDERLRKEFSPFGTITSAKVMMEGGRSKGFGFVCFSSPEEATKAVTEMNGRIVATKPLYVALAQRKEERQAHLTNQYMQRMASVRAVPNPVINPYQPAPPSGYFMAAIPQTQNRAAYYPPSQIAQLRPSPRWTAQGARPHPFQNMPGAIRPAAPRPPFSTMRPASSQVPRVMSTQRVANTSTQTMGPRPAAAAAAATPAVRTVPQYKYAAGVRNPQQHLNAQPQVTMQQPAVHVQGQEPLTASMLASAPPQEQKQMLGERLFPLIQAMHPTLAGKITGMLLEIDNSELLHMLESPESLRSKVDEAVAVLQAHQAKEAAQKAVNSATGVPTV
Rce1 inh: blocks yeast Ras-converting enzyme; Q03530; yeast membranes, quenched prenylated peptide cleavage fluorescence; calls only; hit rate 0.27% among 290,000; AID 2563;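 active = fall in fluorescence gain of 50% or more versus controls, with final raw signal at or below 3038400; inconclusive = same 50% fall but final raw signal above 3038400; inactive = fall in fluorescence gain under 50%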;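 note: plate controls were neutral control wells for no effect and wells lacking membranes for full effect; tested at 10 µM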
Target sequence (Q03530 whole entry, looked up): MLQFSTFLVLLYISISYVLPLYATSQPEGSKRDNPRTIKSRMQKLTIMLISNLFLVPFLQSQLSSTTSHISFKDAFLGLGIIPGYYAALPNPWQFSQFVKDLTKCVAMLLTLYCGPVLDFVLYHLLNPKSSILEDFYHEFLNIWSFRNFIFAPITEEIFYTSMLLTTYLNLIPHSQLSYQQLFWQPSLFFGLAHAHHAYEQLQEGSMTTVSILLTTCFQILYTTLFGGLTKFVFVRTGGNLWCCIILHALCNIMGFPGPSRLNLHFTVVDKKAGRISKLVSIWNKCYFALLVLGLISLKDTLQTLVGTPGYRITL
eIF4H inh: inhibitors of RNA binding by human eIF4H; inhibition, % at 35 µM; hit rate 0.94% among 290,000; Q15056; AID 2012; eIF4H fluorescence polarization binding assay;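 active = 50% or more with normal probe brightness, or confirmed in later tests; inconclusive = above 50% with abnormal brightness, or retests that disagree; inactive = below 50% or failed in later tests; about a fifth of its hits are not listed in these tables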;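 note: calls also rest on retests at 20 µM and on dose response follow-up; 0% = protein and probe with vehicle and 100% = probe without protein; strong numbers were not always called active; many hits fall short of the cut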
eIF4H inh retest: further read-out of eIF4H inh, marked with its call; inhibition, %; compound at 20 µM; confirmation average;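 mean of two retest wells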
PABP FP inh retest: further read-out of PABP FP inh, marked with its call; inhibition, %; compound at 20 µM; confirmation repeats;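 mean of two retest wells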
MT1-MMP act inh RFP: also measured in MT1-MMP act inh; calls as there; RFP signal change, %; measured here: RFP expression control read;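 0 = vehicle wells; hits needed this value within 50% of zero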
An asterisk follows results filed as active; & = joins results of further samples; [ ] = dose if it differs, or a comment.

Screening CCCOc1ccc(N2C(=O)CC(N(Cc3ccc(S(N)(=O)=O)cc3)C(=O)CC)C2=O)cc1 (stereo unspecified) returned CSC inhib -7, UUG fidelity -10, MT1-MMP act inh 1, PABP FP inh 0, Rce1 inh inactive, eIF4H inh -11 and MT1-MMP act inh RFP 1.
For CCOc1cc(S(=O)(=O)N(CC)CC)ccc1Br the results were CSC inhib -3, UUG fidelity -3, MT1-MMP act inh -3, PABP FP inh 6, Rce1 inh inactive, eIF4H inh -8 and MT1-MMP act inh RFP -3.
For Cc1onc(-c2ccccc2)c1C(=O)Nc1ccc(S(=O)(=O)N2CCCC2)cc1 the results were CSC inhib -2, Env fusion inh -5, MT1-MMP act inh -7, PABP FP inh -4, Rce1 inh inactive, eIF4H inh -7 and MT1-MMP act inh RFP -10.
For COc1ccc(C(=O)NCc2ccc(-c3nc4ccccc4s3)cc2)cc1 the results were UUG fidelity -19, MT1-MMP act inh 6, PABP FP inh -4, Rce1 inh inactive, eIF4H inh 0 and MT1-MMP act inh RFP 5.
For CNC(=O)c1ccccc1S(=O)c1ccccc1C#N (stereo unspecified) the results were CSC inhib -8, UUG fidelity -20, MT1-MMP act inh 4, PABP FP inh -8, eIF4H inh 2 and MT1-MMP act inh RFP 4.
For O=C(O)/C=C/C(=O)N1Cc2cc3ccccc3nc2C1 the results were CSC inhib -17, UUG fidelity -17, Env fusion inh -11, MT1-MMP act inh -16, PABP FP inh 23, Rce1 inh inactive, eIF4H inh 39 and MT1-MMP act inh RFP 6.
Screening CC(C)Sc1nc2sccc2c(=O)n1-c1ccccc1 returned CSC inhib 32, UUG fidelity -4, Env fusion inh 1, MT1-MMP act inh -2, PABP FP inh -2, Rce1 inh inactive, eIF4H inh 1 and MT1-MMP act inh RFP 0.
CCOC(=O)N1CCC(=NNC(=O)c2ccccc2F)CC1 was read as CSC inhib 5, Env fusion inh 8, MT1-MMP act inh 1, PABP FP inh -5, eIF4H inh 6 and MT1-MMP act inh RFP 1.
Screening Cc1ccc(NC(=O)c2ccccc2OCC(=O)c2ccc(F)cc2)cc1 returned CSC inhib 11, UUG fidelity -16, Env fusion inh 0, MT1-MMP act inh 0, PABP FP inh 1, Rce1 inh inactive, eIF4H inh -2 and MT1-MMP act inh RFP 8.
`CC(=O)c1ccc(NC(=O)CCn2c(=S)oc3ccccc32)cc1` gave UUG fidelity -12, Env fusion inh -18, MT1-MMP act inh 1, PABP FP inh -4, Rce1 inh inactive, eIF4H inh -4 and MT1-MMP act inh RFP 6.
`Nc1nc(CSc2ccc(Cl)cc2)nc(N2CCCCC2)n1` gave CSC inhib -16, Env fusion inh 7, MT1-MMP act inh 4, PABP FP inh -5, Rce1 inh inactive, eIF4H inh -8 and MT1-MMP act inh RFP -5.
C=CCNc1nc2c(c(=O)[nH]c(=O)n2C)n1CCCCC was read as CSC inhib -3, UUG fidelity 17, MT1-MMP act inh 4, PABP FP inh -2, Rce1 inh inactive, eIF4H inh -1 and MT1-MMP act inh RFP 6.
OC(CNCc1cccs1)c1ccccc1 (stereo unspecified) was read as CSC inhib -3, UUG fidelity -9, MT1-MMP act inh 0, PABP FP inh 0, Rce1 inh inactive, eIF4H inh 0 and MT1-MMP act inh RFP 3.
Screening Cc1ccc(Sc2ccc(C(=O)NC(C)C)cc2[N+](=O)[O-])cc1 returned CSC inhib -3, UUG fidelity -14, MT1-MMP act inh -2, PABP FP inh 7, Rce1 inh inactive, eIF4H inh -10 and MT1-MMP act inh RFP -2.
Screening O=C1COc2ccc(C(=O)COC(=O)c3ccco3)cc2N1 returned CSC inhib -6, Env fusion inh -12, MT1-MMP act inh 0, PABP FP inh -6, Rce1 inh inactive, eIF4H inh 4 and MT1-MMP act inh RFP 0.
`COc1ccc(CCN2CC(C(=O)NCCc3ccc(C(F)(F)F)cc3)CCC2=O)cc1` (stereo unspecified) gave UUG fidelity -11, Env fusion inh 9, MT1-MMP act inh 5, PABP FP inh 9, Rce1 inh inactive, eIF4H inh -3 and MT1-MMP act inh RFP -2.
Screening C[C@H](CO)N1C[C@H](C)[C@@H](CN(C)C(=O)Nc2ccc3c(c2)OCO3)Oc2ccc(NC(=O)C3CCCCC3)cc2C1=O returned UUG fidelity -7&5, Env fusion inh -4[16.7 µM], MT1-MMP act inh 0 and MT1-MMP act inh RFP 3.
`OCC(O)C1OC(c2ccco2)OC(CO)C1O` (stereo unspecified) gave UUG fidelity -15, Env fusion inh 4, MT1-MMP act inh -2 and MT1-MMP act inh RFP 2.
For O=C(c1nc2ccccn2c1CN1CCCC(OCc2ccccc2)C1)N1CCCC1 (stereo unspecified) the results were CSC inhib -11, UUG fidelity 18, Env fusion inh 1, MT1-MMP act inh 2, PABP FP inh 7, Rce1 inh inactive, eIF4H inh 3 and MT1-MMP act inh RFP -5.
Screening CC(C(=O)Nc1nccs1)N1C(=O)c2ccccc2S1(=O)=O (stereo unspecified) returned CSC inhib -3, UUG fidelity 4, Env fusion inh -11, MT1-MMP act inh -1, Rce1 inh inactive and MT1-MMP act inh RFP 3.
COc1ccc(CNC(=O)CN(Cc2ccccc2)C(=O)CCC(=O)Nc2ccccn2)cc1 was read as CSC inhib -6, UUG fidelity -18, Env fusion inh -5, MT1-MMP act inh 0, PABP FP inh 4, Rce1 inh inactive, eIF4H inh -13 and MT1-MMP act inh RFP 0.
COc1cc(NC(=O)Cn2ccsc2=N)cc(OC)c1 was read as CSC inhib -15, UUG fidelity -4, Env fusion inh 5, MT1-MMP act inh 0, PABP FP inh 7, Rce1 inh inactive, eIF4H inh -4 and MT1-MMP act inh RFP 0.
CCOC(=O)C1CCN(C2CCN(C(=O)c3oc4c(C)c(C)ccc4c3C)CC2)CC1 was read as CSC inhib -8, UUG fidelity -6, Env fusion inh 0, MT1-MMP act inh -8, PABP FP inh -4, Rce1 inh inactive, eIF4H inh 54, eIF4H inh retest -11, PABP FP inh retest 30 and MT1-MMP act inh RFP 4.
For NCc1cccc(CNc2ccc([N+](=O)[O-])cc2C(N)=O)c1 the results were UUG fidelity -14, Env fusion inh 19, MT1-MMP act inh 1 and MT1-MMP act inh RFP 3.

Of the compounds above, these have two or more sulfur atoms:
Screening CC(C)Sc1nc2sccc2c(=O)n1-c1ccccc1 returned CSC inhib 32, UUG fidelity -4, Env fusion inh 1, MT1-MMP act inh -2, PABP FP inh -2, Rce1 inh inactive, eIF4H inh 1 and MT1-MMP act inh RFP 0.
Screening CC(C(=O)Nc1nccs1)N1C(=O)c2ccccc2S1(=O)=O (stereo unspecified) returned CSC inhib -3, UUG fidelity 4, Env fusion inh -11, MT1-MMP act inh -1, Rce1 inh inactive and MT1-MMP act inh RFP 3.

The list goes on:
COC(=O)c1c(N)nc(C)n1-c1ccc(OC)cc1 was read as CSC inhib -2, UUG fidelity -17, MT1-MMP act inh -7, PABP FP inh 4, Rce1 inh inactive, eIF4H inh -1 and MT1-MMP act inh RFP 1.
`O=C(Nc1nc(-c2ccc(F)c(F)c2)cs1)c1cc([N+](=O)[O-])ccc1N1CCOCC1` gave CSC inhib 61, UUG fidelity -21, Env fusion inh -13, MT1-MMP act inh 1, PABP FP inh -8, Rce1 inh inactive, eIF4H inh 9 and MT1-MMP act inh RFP 1.
Screening NCCNC(=O)Cc1cccc(NC(=O)Cc2ccc(Nc3ncnc4c3ncn4[C@@H]3O[C@H](CO)[C@@H](O)[C@H]3O)cc2)c1 returned CSC inhib -8, UUG fidelity -10, Env fusion inh 3, MT1-MMP act inh 2, PABP FP inh -1, Rce1 inh inactive, eIF4H inh -4 and MT1-MMP act inh RFP -2.
Screening Cc1ccccc1NC(=O)CSCCO returned UUG fidelity -10, Env fusion inh -85, MT1-MMP act inh -1, PABP FP inh 2, Rce1 inh inactive, eIF4H inh -5 and MT1-MMP act inh RFP -1.
`C/C(=C\c1ccccc1)C(=O)Nc1nc2ccc([N+](=O)[O-])cc2s1` gave CSC inhib 17, UUG fidelity 0, Env fusion inh -58, MT1-MMP act inh -4, PABP FP inh -5, Rce1 inh inactive, eIF4H inh 0 and MT1-MMP act inh RFP -5.
`O=C(C[C@H]1C/C=C\C[C@@H](Cc2ccc(F)cc2)C(=O)O[C@H](c2ccccc2)CNC1=O)N[C@@H](CO)Cc1ccccc1` gave UUG fidelity -18, Env fusion inh inconclusive, MT1-MMP act inh 3 and MT1-MMP act inh RFP 4.
O=C(c1cccc(C(F)(F)F)c1)C1CCCN(C(=O)CN2CCOC2=O)C1 (stereo unspecified) was read as CSC inhib -2, UUG fidelity -9, Env fusion inh -25, MT1-MMP act inh 2, PABP FP inh 7, Rce1 inh inactive, eIF4H inh -5 and MT1-MMP act inh RFP 0.
For CCN(CC)c1ccc(NC(=O)CN2CCN(c3nc(C)cc(C)n3)CC2)cc1 the results were CSC inhib 16, UUG fidelity 1, MT1-MMP act inh 4, PABP FP inh -12, eIF4H inh -1 and MT1-MMP act inh RFP -10.
Fc1ccc(/C=N/Nc2nnnn2-c2ccccc2)cc1 was read as CSC inhib -11, Env fusion inh -16, MT1-MMP act inh 4, PABP FP inh 4, Rce1 inh inactive, eIF4H inh 11 and MT1-MMP act inh RFP 2.
O=C(CN(Cc1ccco1)C(=O)CNS(=O)(=O)c1ccc(F)cc1)NCc1ccccc1 was read as UUG fidelity 2, Env fusion inh 8, MT1-MMP act inh 0, PABP FP inh 27, Rce1 inh inactive, eIF4H inh -7 and MT1-MMP act inh RFP 3.
For O=C(NCc1cccnc1)C1C2C=CC(C2)C1C(=O)Nc1cccc(C(F)(F)F)c1 (stereo unspecified) the results were UUG fidelity -10, Env fusion inh 15, MT1-MMP act inh -2 and MT1-MMP act inh RFP 0.
`O=S(=O)(Nc1ccc(Br)cc1)N1CCOCC1` gave CSC inhib -15, UUG fidelity 0, Env fusion inh 9, MT1-MMP act inh -5, PABP FP inh -8, Rce1 inh inactive, eIF4H inh -11 and MT1-MMP act inh RFP 2.
Screening O=C(c1ccc2c(=O)n(Cc3ccc(Cl)cc3)c(=S)[nH]c2c1)N1CCCC1 returned CSC inhib 35, UUG fidelity -22, Env fusion inh -3, MT1-MMP act inh 5, PABP FP inh 4, Rce1 inh inactive, eIF4H inh -2 and MT1-MMP act inh RFP -4.
For O=C1CN(C(=O)COc2ccccc2Cl)c2ccccc2N1 the results were CSC inhib 4, UUG fidelity -5, Env fusion inh -16, MT1-MMP act inh -1 and MT1-MMP act inh RFP 3.
COc1ccc(/C=N/OCC(=O)NC(c2ccccc2)c2ccccc2)cc1OC was read as CSC inhib 20, Env fusion inh 62*, MT1-MMP act inh -9, PABP FP inh -8, Rce1 inh inactive, eIF4H inh -8 and MT1-MMP act inh RFP -27.
`O=C1CS/C(=N\c2ccccn2)N1C1CCCCC1` gave CSC inhib -9, UUG fidelity -3, MT1-MMP act inh 0, PABP FP inh -7, Rce1 inh inactive, eIF4H inh -1 and MT1-MMP act inh RFP -3.
`Fc1ccccc1CSc1ncnc2c1ncn2C1CCCO1` (stereo unspecified) gave UUG fidelity -8, Env fusion inh -42, MT1-MMP act inh -2 and MT1-MMP act inh RFP -4.
Cc1ccccc1NC(=O)NCc1ccccn1 was read as CSC inhib -2, UUG fidelity -19, Env fusion inh 7, MT1-MMP act inh 2, Rce1 inh inactive and MT1-MMP act inh RFP 2.
For COc1ccc(C(=O)Nn2cnnc2)cc1 the results were CSC inhib -7, UUG fidelity -6, Env fusion inh -41, MT1-MMP act inh -3, PABP FP inh -12, Rce1 inh inactive, eIF4H inh -5 and MT1-MMP act inh RFP -3.

Source: PubChem BioAssay

Not all compounds are listed; count on the stated rates, not on these rows.
